Screening data (PubChem BioAssay)
HCMV UL50-53 inh: inhibitors of HCMV UL50-UL53 interaction, biochemical, HTRF; HCMV UL50-UL53 nuclear egress complex (human cytomegalovirus); actives 0.15% (n = 190,000); normalized percent inhibition; inhibition, % (no concentration beside the values);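 active means both replicates at 50% or more, plus weaker picks with an unusually low signal ratio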;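 further: stock transfer was 100 nL into about 20 µL; 0% = negative control wells and 100% = wells with untagged competitor protein; inactives centre near -12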
GIV Gai3 FP: inhibitors of GIV peptide binding to Galpha-i3, primary screen, biochemical, fluorescence polarization, FITC-GIV GBA peptide, rat Galphai3; Guanine nucleotide-binding protein G(i) subunit alpha-3 (Rattus norvegicus), P08753; 90 min; hits give low values; scaled: aluminum fluoride 0%, vehicle 100%; percent of control (FP), % (no concentration beside the values); actives 0.42% (n = 210,000); AID 1224905, 2016;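 active means replicate mean at 85% of control or lower, very high polarization wells dropped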;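 further: wells of about 15 µL received 100 nL stock; the first replicate is given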
Target sequence (P08753 whole entry, looked up): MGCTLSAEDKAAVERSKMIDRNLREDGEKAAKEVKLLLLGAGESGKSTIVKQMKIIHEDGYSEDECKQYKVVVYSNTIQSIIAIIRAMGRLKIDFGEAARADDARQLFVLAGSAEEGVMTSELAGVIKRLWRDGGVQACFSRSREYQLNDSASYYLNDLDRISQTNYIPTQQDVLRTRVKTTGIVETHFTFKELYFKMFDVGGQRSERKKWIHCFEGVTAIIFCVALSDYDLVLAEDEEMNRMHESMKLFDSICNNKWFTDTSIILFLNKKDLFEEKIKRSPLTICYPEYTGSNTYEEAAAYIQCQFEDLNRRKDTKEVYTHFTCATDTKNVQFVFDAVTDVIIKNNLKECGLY
Sa growth 42C: S. aureus growth inhibition at 42 and 30 °C, primary screen, LtaS inhibitor project, RN4220, two temperatures. OD600, 20 h, 42 °C; hits give low values. relative growth, % (test concentration not listed). actives 0.53% (n = 170,000);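 active means growth at 42 °C up to 50% and 20 or more points under that at 30 °C, or under 10% at both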;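 further: 300 nL library stock went into each well; scaled to the means of positive and negative controls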
Sa growth 42C second temp: second read-out of Sa growth 42C, no call of its own (marks repeat the call); relative growth, %; measured here: growth at 30 °C;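 optical density after 20 h as mean of two plates; 100% = untreated growth and lower means inhibition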
Starred values were filed as active, the others as inactive; x = not tested or not shown; & = joins results of further samples.

structure	HCMV UL50-53 inh	GIV Gai3 FP	Sa growth 42C	Sa growth 42C second temp
CCOC(=O)Cn1c(=O)c2c(OCC)c(C)cnc2n(C)c1=O	2	116	x	x
CCS(=O)c1ccccc1C(=O)OC(C)C(=O)Nc1ncc(Cl)cc1Cl (configuration not stated)	-17	x	88	85
Cc1ccc(C)c(C(=O)CCC(=O)NCc2ccc3c(c2)OCO3)c1	-21	x	83	98
Cc1nc(N2CCOCC2)cc(N2CCN(C(=O)C(C)(C)C)CC2)n1	2	102	x	x
CC1(C)CC(=NN=C2CC(C)(C)NC(C)(C)C2)CC(C)(C)N1	-14	105	96	91
O=C(c1csc(S(=O)(=O)NCc2cccnc2)c1)N1CCCC1	-15	107	x	x
CCc1ccc(CNC(=O)CSCc2cnn(-c3ccccc3)c2-n2cccc2)cc1	-28	102	103	88
Cc1nn(C)c2c1c(C(F)(F)F)cc(=O)n2C(C)C(=O)NCCc1ccc(Cl)cc1 (configuration not stated)	x	104	88	91
Cc1ccc(-c2nc(-c3cccc(NC(=O)Nc4ccccc4)c3)no2)cc1	-4	107	x	x
Cc1ccccc1-n1c(SC2CCOC2=O)nnc1-c1ccncc1 (configuration not stated)	-8	x	99	90
Cc1ccc(CC(=O)NCCCn2ccnc2)cc1	2	104	104	87
COC(=O)c1nc2n(n1)C(c1cccc(Cl)c1)C(C(=O)Nc1ccccc1OC)=C(C)N2 (configuration not stated)	4	104	101	88
COc1cc(C)c(C)cc1S(=O)(=O)N1CCc2cc3ccc(C)cc3nc21	7	103	x	x
COc1cc2c(=O)n(Cc3ccc(C(=O)NC4CCCC4)cc3)c(=O)n(Cc3ccccc3F)c2cc1OC	-28	103	x	x
COc1ccc(NC(=O)C2C3C=CC4(O3)C2C(=O)N(CCCN2CCOCC2)C4C(=O)NC2CCCC(C)C2C)cc1 (configuration not stated)	-21	99	97	82
O=c1c2ccccc2sn1-c1ccc(S(=O)(=O)N2CCOCC2)cc1	-24	x	62	87
CC1(C)OC[C@@H]([C@H](O)P(=O)(c2ccccc2)c2ccccc2)O1	x	110	78	92
COC(=O)c1ccccc1NC(=O)CSc1nc2nc(C)cc(C)n2n1	-24	108	83	89
C=CCC(Nc1ccc(OC)c(OC)c1)c1ccco1 (configuration not stated)	-21	109	97	93
COCCNC(=O)c1c[nH]c2ccccc2c1=O	-24	102	97	96
CCc1nc(-c2ccccc2)cc(=O)[nH]1	-8	x	89	89
CCc1ccc(NC(=O)[C@H](Cc2ccccc2)N2Cc3ccccc3C2=O)cc1	-40	103	99	88
Cc1oc(-c2ccccc2F)nc1CSCC(=O)NC1CC1	-5	106	98	101
Cc1nc(-c2ccccc2)ncc1C(=O)NCc1cccc(Cl)c1	-11	106	x	x
Cc1nc(NCCC(=O)O)c2c3c(sc2n1)CCCC3	x	104	108	76
Cc1ccc(/C(O)=C2/C(=O)C(=O)N(CC(C)C)C2c2cccnc2)cc1 (configuration not stated)	-12	107	x	x
CCN1/C(=C\C=C\C(=O)c2ccccc2OC)Sc2ccccc21	-67	x	95	61
O=C(NC1CCCCC1)C1CCCN(S(=O)(=O)c2cccs2)C1 (configuration not stated)	x	102	88	91
Cc1cc(C)n(-c2ccc3ccccc3n2)n1	-16	99	87	72
O=C(COC(=O)C1CCN(c2ccc(C(F)(F)F)cn2)CC1)NC1CCCCC1	-27	x	98	86
COc1ccc(N2CCN(C(=O)Nc3ccc(Cl)cc3)CC2)cc1	20	109	112	102
O=C(O)c1c[nH]c2ccccc2c1=O	1&-8	108	112&87	86&63
Fc1ccc(-c2nc3cc(Cl)ccc3o2)cc1	-12	97	109	103
O=C1c2ccccc2-c2c1c1ccccc1c(=O)n2CC1CC1	11	99	107	100
Cc1c(-c2nc(-c3ccc(Cl)cc3)no2)sc2ncn(CC(=O)NC3CCCCC3)c(=O)c12	8	101	x	x
N#C/C(=C\c1ccsc1)C(=O)NCc1ccco1	-27	x	98	100
CCC(Sc1nnc(-c2ccc(OC)c(OC)c2)c(-c2ccc(OC)c(OC)c2)n1)C(=O)NC1CCCC1 (configuration not stated)	x	106	122	99
COC(=O)c1ccccc1NC(=O)CN1C(=O)CSc2ncccc21	1	107	92	81
CCCN1CCN(c2ncnc3sc(C(=O)O)c(C)c23)CC1	-35	102	x	x
O=C(NCCCN1CCN(c2ccccc2F)CC1)c1cc2c(s1)-c1ccccc1OC2	-24	102	103	12
COc1ccc(OCc2nnc3sc(-c4c[nH]c5ccccc45)nn23)cc1	2	103	x	x
Oc1ccc2c(c1)c(-c1ccccc1)nn2-c1ccccc1	-23	105	20*	41*
O=C(Nc1ccc(Br)cc1)c1ccc(F)c(S(=O)(=O)N2CCc3ccccc32)c1	x	103	124	90
O=C(O)C1C2C=CC(C2)C1C(=O)N1CCN(Cc2ccccc2)CC1 (configuration not stated)	15	103	103	112
CCSc1nnc(-c2cccc(Cl)c2)n1CC	-10	x	98	95
CCc1ccc(C(=O)c2cc3ccc(O)cc3oc2=O)cc1	-70	121	58	11
CCN(c1ccccc1)c1nnc(NC(=O)Nc2cccc(C(F)(F)F)c2)s1	-17	101	112	94
O=S(=O)(c1ccc(Cl)cc1)N1CCCC(c2nc(-c3ccccc3Br)no2)C1 (configuration not stated)	-22	99	x	x
COC(=O)Cn1c(=NC(=O)c2ccccc2)sc2cc(OC)ccc21	-15	104	95	87
COc1ccc(CCNC(=O)c2nc3ccccc3c(=O)n2-n2cccc2)cc1OC	8	99	89	89

In the list so far, these have bromine:
structure	HCMV UL50-53 inh	GIV Gai3 FP	Sa growth 42C	Sa growth 42C second temp
O=C(Nc1ccc(Br)cc1)c1ccc(F)c(S(=O)(=O)N2CCc3ccccc32)c1	x	103	124	90
O=S(=O)(c1ccc(Cl)cc1)N1CCCC(c2nc(-c3ccccc3Br)no2)C1 (configuration not stated)	-22	99	x	x

Continuation:
structure	HCMV UL50-53 inh	GIV Gai3 FP	Sa growth 42C	Sa growth 42C second temp
c1ccc(-n2nnnc2N2CCCC2)cc1	-3	102	103	71
CN1/C(=C\C=N\c2ccccn2)C(C)(C)c2ccccc21	-59	x	102	74
Cc1nc(C(=O)NCC(=O)c2cccc(Cl)c2)c(C(F)(F)F)o1	3	104	110	94
CCc1cc2c(cc3n2CC(C)(C(=O)NC2CCCCC2)N(CCCN2CCCC2)C3=O)s1 (configuration not stated)	-18	97	x	x
Cc1ccsc1C(=O)N1CCN(C(=O)c2cc(-c3ccccn3)n[nH]2)CC1	-12	94	x	x
N#Cc1oc2ccccc2c1NC(=O)Cc1c(Cl)cccc1Cl	-24	x	102	76
O=C(O)CCc1cccnc1	-16	105	120	89
O=C1C2=C(C(=O)N1c1ccc(Br)cc1)C(c1ccccc1)=NCCN2	-39	105	116	87
CC1C(c2ccc(F)cc2)=NOC1C(=O)O (configuration not stated)	-8	102	86	87
Cc1c(C(=O)O)cc(-c2ccccc2)n1CCNC(=O)OC(C)(C)C	0	102	121	96
Cc1cc(C)n(-c2ccc(CSc3nnc(-c4ccc(OC(F)F)cc4)o3)cc2)n1	-15	x	89	94
CCOC(=O)C1=C(C)OC(N)=C(C#N)C1c1cccs1 (configuration not stated)	-27	100	x	x
COc1ccc(OC)c(NC(=O)Cn2c(CCC(=O)O)ccc2-c2ccccc2)c1	10	102	104	80
Cc1ccc(C(=O)N/C(=C\c2cn(S(=O)(=O)N(C)C)c3ccccc23)C(=O)NCCCn2ccnc2)cc1	-25	99	103	60
COc1cc(OC)c(NC(=O)CCn2cnc3ccccc3c2=O)cc1Cl	-35	100	x	x
CC(NC(=O)C1CCN(S(=O)(=O)c2ccc3c(c2)oc(=O)n3C)CC1)c1ccccc1 (configuration not stated)	-30	102	114	91
Cc1ccccc1Nc1nc(N)nc(CNc2cccc(F)c2)n1	-29	x	99	91
CC(CCc1ccccc1)NC(=O)COc1ccc(-n2cnnn2)cc1 (configuration not stated)	-43	x	93	93
O=C(c1ccccc1Oc1ccccc1)N1CCn2c1nc1ccccc12	-9	x	70	87
c1coc(-c2nc3nc4ccccc4nc3n2-c2ccc3c(c2)OCCO3)c1	-43	106	94	76
CCOc1c(C)cnc2c1c(=O)n(CC(=O)NC1CCCCC1)c(=O)n2C	-3	104	x	x
CCc1ccc(C(=O)Nc2ccc(S(N)(=O)=O)cc2)cc1	0	102	94	86
COc1ccc(S(=O)(=O)NCc2csc(-c3ccccc3)n2)cc1	-36	107	94	85
Cc1cnn(C(=S)NCc2ccco2)c1	0	110	102	91
Cc1cc(C)c2c(=O)cc(CSCC(=O)Nc3nnc(C)s3)[nH]c2c1	x	107	-0.5*	-0.3*

An excerpt from above, limited to HCMV UL50-53 inh.
| SMILES | HCMV UL50-53 inh |
| --- | --- |
| CN1/C(=C\C=N\c2ccccn2)C(C)(C)c2ccccc21 | -59 |
| Cc1nc(C(=O)NCC(=O)c2cccc(Cl)c2)c(C(F)(F)F)o1 | 3 |

Other records:
structure	HCMV UL50-53 inh	GIV Gai3 FP	Sa growth 42C	Sa growth 42C second temp
Cc1cc(C)nc(SCc2ccccc2C(=O)N2CCN(Cc3ccc4c(c3)OCO4)CC2)n1	6	x	83	89
CC(=O)Nc1cc(C(=O)NC2CCCCC2C)ccc1S(=O)(=O)c1ccc(Cl)cc1 (configuration not stated)	3	100	108	95
COc1ccccc1NC(=O)c1sc2nc(N3CCOCC3)c3c(c2c1N)CC(C)(C)OC3	-23	97	81	91
Cc1cc(CN2C(=O)c3ccccc3S2(=O)=O)no1	-56	101	105	93
COc1cc(CN2c3ccccc3N3CCCCCC32)cc(OC)c1OC (configuration not stated)	-40	102	68	43
CCOC(=O)C1CCCN(c2cc(C)nc3cc(-c4ccc(Cl)cc4)nn23)C1 (configuration not stated)	-6	109	97	76
Cc1ccc(C)c(SCC(=O)NC(C)C(c2cccs2)N2CCCC2)c1 (configuration not stated)	7	x	90	103
CN(C)c1ccc(C2NC(C(=O)O)Cc3c2[nH]c2ccccc32)cc1 (configuration not stated)	-45	193	x	x
COCCN(Cc1nc2ccccc2c(=O)[nH]1)C(=O)c1ccc(S(C)(=O)=O)cc1	-21	x	71	91
Nc1ccc(S(=O)(=O)N2CCSC2C(=O)O)cc1 (configuration not stated)	-18	100	78	84
CCn1cc(/C=C(\NC(=O)c2ccc(OC)c(OC)c2)C(=O)NCCCn2ccnc2)c2ccccc21	-27	109	106	86
COc1ccccc1-c1nnc(CC(=O)O)o1	-1	100	90	86
CCOC(=O)c1nc(-c2ccccc2)oc1N1CCOCC1	2	108	100	63
CCn1c(CN2CCC(C)CC2)nc2cc(NC(=O)c3ccccc3[N+](=O)[O-])ccc21	-32	102	105	92
Cc1cc(OCC(=O)Nc2ccc(C(=O)OC3CCCCC3)cc2)ccc1Cl	-33	100	98	89
Cc1cccc(-n2nnc(-c3ccc(C(C)(C)C)cc3)n2)c1	x	101	88	94
CCC(C)NC(=O)Cn1cnc2onc(-c3ccc(Cl)cc3)c2c1=O (configuration not stated)	-34&-6	101&103	89	86
CCn1nc(C)cc1C(=O)Oc1ccc(C)cc1	1	106	99	91
Cc1cc(/C=C(\C#N)C(N)=S)c(C)n1C1CC1	-40	x	105	80
CCOc1ccc(C(=O)Nc2ccc(-c3nc4cc(C(C)C)ccc4o3)cc2)cc1Cl	-22	105	97	80
CCC(C)NC(=O)c1ccc2c(=O)n(C3CC3)c3nn(CC(N)=O)c(=O)n3c2c1 (configuration not stated)	-10	99	x	x
O=C(Nc1ccccc1)c1cccc(N2CCCS2(=O)=O)c1	-22	113&107	96	101
O=C(CCS(=O)(=O)c1ccccc1)N(Cc1cccnc1)c1nc2c(F)cccc2s1	x	108	93	82
COc1ccccc1C1CC(=O)Nc2cc3c(cc21)CCC3 (configuration not stated)	x	100	113	88
COC(=O)c1ccc(Cn2cnc3ccccc32)cc1	-20	102	93	80
Cc1nnc(SCC(=O)NC(C)c2ccc(CC(C)C)cc2)n1N (configuration not stated)	-2	x	114	92
CCOC(=O)c1nc(Nc2ccc(C(=O)OC(C)C)cc2)c2ccccc2n1	-27	102	99	84
O=C(c1ccc(S(=O)(=O)N2CCOCC2)cc1)N1CCN(CCN2C(=O)c3cccc4cccc(c34)C2=O)CC1	-55	106	x	x
Cc1ccc(Cn2cc(S(=O)(=O)c3cccc(Cl)c3)c(=O)c3cc(F)c(N4CCCCC4)cc32)cc1	x	102	96	96
CC1=C(C(=O)OCCOc2ccccc2)C(c2ccccc2OC(C)C)NC(=O)N1 (configuration not stated)	-1	106	x	x
N#Cc1c(SCCCOc2ccccc2)sc2c(=O)[nH]c(=O)[nH]c12	-12	108	79	60
Cc1ccccc1Cn1c(NC(=O)C2CCCCC2)nc2ccccc21	8	102	x	x
Cc1cccn2c(=O)c3cc(C(=O)N(C)Cc4ccccc4)sc3nc12	x	100	100	91
